HIV Env fusion – inhibitors of HIV-1 Env-driven cell-cell fusion, primary screen, HeLa-JRFL effector, CEM21 target cells, luciferase; inhibition, % at 12.3 µM; 1.1% of 360,000 active; AID 651610, 2012;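 active = mean replicate inhibition score of at least 50 and every replicate individually at or above 50; inconclusive = only one of the two criteria met; inactive = mean below 50 and not all replicates reaching 50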;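 also: 0% = plate neutral controls and 100% = maraviroc near 300 nM; one replicate is shown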
Yeast UUG start – modulators of yeast start codon fidelity, primary screen, whole organism, S. cerevisiae, single point, plate reader; AID 602363, 2012; activity score, % at 18.7 µM; 0.13% of 350,000 active; S. cerevisiae UUG-firefly luciferase reporter, luminescence/redox ratio;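 active = replicate mean at a twofold rise or more, about +100% in these data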;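 also: firefly luciferase made from a UUG start codon reports start codon fidelity; reporter light over untreated wells divided by growth signal over untreated wells; some hits fall short of that in this replicate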
CSC inhib – cancer stem cell viability inhibitors, primary screen, luminescence. cancer stem cell-like cells viability. inhibition, % at 7.5 µM. 1.1% of 300,000 active. AID 2717, 2010;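 active = mean at 75% or more and at least half the replicates too; inconclusive = mean and replicates disagree; tested in HMLE shEcad cells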;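 also: 0% = median of negative and 100% = median of positive control wells; the first replicate is given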
MT1-MMP act inh – blockers of MT1-MMP proenzyme processing, primary screen, HT1080 RFP-PRO-GFP cells, GFP/RFP fluorescence; GFP/RFP ratio change, % at 20 µM; Matrix metalloproteinase-14 (Homo sapiens), P50281; GFP/RFP ratio fluorescence, overnight; percent of plate control window, DMSO zero; 0.061% of 360,000 active;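 active = GFP/RFP ratio change of at least 30% with cell ATP level not reduced by more than half and red fluorescence within 50% of control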; also: strong numbers were not always called active
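Material: RFP-PRO-GFP reporter HT1080 cells. Dosing: single-point 20 µM compound, 1% DMSO. Controls: DMSO and RFP-L50D-GFP cell wells. Timing: cells overnight before dosing, compound overnight, 37 °C, 5% CO2. Measure: GFP/RFP fluorescence ratio.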
eIF4H inh – human eIF4H binding inhibitors, primary screen, translation initiation inhibitor project, biochemical, uHTS, fluorescence polarization; Eukaryotic translation initiation factor 4H (Homo sapiens), Q15056; eIF4H fluorescence polarization binding assay; inhibition, % at 35 µM; 0.94% of 290,000 active;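 active = 50% or more with normal probe brightness, or confirmed in later tests; inconclusive = above 50% with abnormal brightness, or retests that disagree; inactive = below 50% or failed in later tests; about a fifth of its hits are not listed in these tables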;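 also: calls also rest on retests at 20 µM and on dose response follow-up; 0% = protein and probe with vehicle and 100% = probe without protein; strong numbers were not always called active; many hits fall short of the cut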
PABP polyA inh – PABP poly(A) RNA binding inhibitors, primary screen, biochemical, fluorescence polarization, uHTS; 1% of 290,000 active; inhibition, % at 35 µM; AID 2014, 2009; Polyadenylate-binding protein 1 (Homo sapiens), P11940;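 active = 50% or more with normal probe brightness, or confirmed in later tests; inconclusive = above 50% with abnormal brightness, or retests that disagree; inactive = below 50% or failed in later tests; about a fifth of its hits are not listed in these tables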;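 also: calls also rest on retests at 20 µM and on dose response follow-up; controls were probe without protein and protein plus probe with vehicle; some compounds called inactive have numbers as strong as hits; many hits fall short of the cut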
Rce1 inh – yeast Rce1p protease inhibitors, primary screen, biochemical, fluorescence, cell-free homogeneous. CAAX prenyl protease 2 (Saccharomyces cerevisiae (strain ATCC 204508 / S288c)), Q03530. yeast membranes, quenched prenylated peptide cleavage fluorescence. calls only. 0.27% of 290,000 active;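 active = fall in fluorescence gain of 50% or more versus controls, with final raw signal at or below 3038400; inconclusive = same 50% fall but final raw signal above 3038400; inactive = fall in fluorescence gain under 50%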;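 also: plate controls were neutral control wells for no effect and wells lacking membranes for full effect; tested at 10 µM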
Target sequence (Q03530 whole entry, looked up): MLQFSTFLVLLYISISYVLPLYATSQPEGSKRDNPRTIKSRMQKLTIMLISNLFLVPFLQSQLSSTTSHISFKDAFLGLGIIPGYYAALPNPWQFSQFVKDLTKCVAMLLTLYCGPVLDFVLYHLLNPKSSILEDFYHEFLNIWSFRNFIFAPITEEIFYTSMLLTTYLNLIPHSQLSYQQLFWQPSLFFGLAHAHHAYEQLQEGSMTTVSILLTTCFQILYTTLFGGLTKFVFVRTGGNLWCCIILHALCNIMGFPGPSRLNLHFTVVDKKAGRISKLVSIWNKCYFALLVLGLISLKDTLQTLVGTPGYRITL
MT1-MMP act inh RFP – further read-out of MT1-MMP act inh, marked with its call; RFP signal change, %; measured here: RFP expression control read;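 0 = vehicle wells; hits needed this value within 50% of zero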
Numbers without * were called inactive; i = inactive; ? = inconclusive; · = no result given; & = joins results of further samples. Only part of the results is shown (hit frequency here may not be typical).

SMILES	HIV Env fusion	Yeast UUG start	CSC inhib	MT1-MMP act inh	MT1-MMP act inh RFP	eIF4H inh	PABP polyA inh	Rce1 inh
Cc1ccc(F)cc1NC(=O)CN1CCN(Cc2ccccc2)CC1	2	·	0	1	0	-4	-11	i
O=C(Nc1cnccn1)c1cccs1	-47	-22	27	3	3	14	-2	i
O=C(OCc1ccc2c(c1)OCO2)c1ccc(S(=O)(=O)N2CCCC2)cc1	·	-9	-7	1	3	-4	-5	i
COc1ccc(OCCCC(=O)Nc2ccc(N3CCOCC3)cc2)cc1	7	-14	-9	0	1	2	-11	i
O=C(CN1C(=O)NC2(CCc3ccccc32)C1=O)Nc1cccc(F)c1 (stereo not drawn)	7	-11	-4	5	2	·	·	i
CCOC(=O)CCCNC(=O)COc1ccccc1C#N	-3	-12	-5	-2	1	1	-2	·
COc1ccc2oc(=O)c(/C(C)=N/NC(=O)c3ccncc3)cc2c1	4	-16	6	-5	-2	10	6	·
O=C(CCCN1C(=O)/C(=C/c2ccccc2)SC1=S)Nc1ccccc1O	19	·	-3	1	-9	1	6	i
Cn1ncc(Cl)c(Oc2ccc(C(C)(C)C)cc2)c1=O	40	·	2	2	4	-4	-8	i
C/C(Cc1ccccc1)=N\NC(=O)C1CCCCC1	-3	-7	-11	10	8	-3	-4	i
COC(=O)c1ccccc1NC(=S)NC(NC(=O)c1ccccc1[N+](=O)[O-])C(Cl)(Cl)Cl (stereo not drawn)	-53	-26	-9	1	9	4	5	i
Cc1ccc(CCC(=O)Nc2ccc(N(C)C)cc2)o1	-1	0	-11	-4	-1	4	-3	·
CCCc1nc(N2CCN(S(=O)(=O)c3ccc(Cl)cc3)CC2)c2c(C)c(C)sc2n1	-10	-16	5	-5	-4	-14	-4	i
O=S(=O)(Nc1ccc(N2CCOCC2)nn1)c1ccccc1	·	-4	·	-4	3	11	-4	i
CCC(C)NC(=O)CSc1n[nH]c(=O)n1CCc1ccccc1 (stereo not drawn)	-6	-17	-14	3	2	-5	6	i
CCOC(=O)C1=CCN(S(=O)(=O)c2ccc(Br)cc2)C1c1cccc(C)c1 (stereo not drawn)	10	-7	·	-1	-5	·	·	·
O=C(Nc1ccc(COc2ccccc2)cc1)c1cccc([N+](=O)[O-])c1	-12	·	15	2	-3	-4	-10	i
COc1ccc(Cl)cc1CSc1ncn[nH]1	-6	2	-10	7	6	-10	-9	i
O=C(NCc1ccccc1)c1cc(C2CCCN(S(=O)(=O)c3cccs3)C2)on1 (stereo not drawn)	22	-7	·	1	-2	·	·	·
CC(C)c1nc(SCC(=O)N2c3ccccc3CC2C)c2ccccc2n1 (stereo not drawn)	·	·	-4	-1	-7	1	-2	i
COC(=O)NCC(c1ccc2c(c1)OCO2)N1CCN(c2ccc(OC)cc2)CC1 (stereo not drawn)	-15	-13	1	0	4	7	11	i
O=C(C[n+]1cn(C(F)F)c2ccccc21)c1ccc(Br)cc1	-4	·	16	-2	-3	0	4	i
COc1ccc(NC(=O)CCCCCN2C(=O)[C@@H]3Cc4ccccc4CN3C2=O)cc1Cl	14	18	3	3	-12	-6	15	i
FC(F)Oc1ccccc1NC(=S)NCc1ccco1	-43	-29	-5	-2	0	-10	-1	i

Among those listed so far, these contain bromine:
SMILES	HIV Env fusion	Yeast UUG start	CSC inhib	MT1-MMP act inh	MT1-MMP act inh RFP	eIF4H inh	PABP polyA inh	Rce1 inh
CCOC(=O)C1=CCN(S(=O)(=O)c2ccc(Br)cc2)C1c1cccc(C)c1 (stereo not drawn)	10	-7	·	-1	-5	·	·	·
O=C(C[n+]1cn(C(F)F)c2ccccc21)c1ccc(Br)cc1	-4	·	16	-2	-3	0	4	i

New compounds follow
SMILES	HIV Env fusion	Yeast UUG start	CSC inhib	MT1-MMP act inh	MT1-MMP act inh RFP	eIF4H inh	PABP polyA inh	Rce1 inh
O=C(CCC(=O)c1ccccc1)NCc1ccccc1	-6	-3	-7	-2	1	-11	-7	i
Cc1cccc(-c2nn(-c3ccccc3)cc2C(=O)NCC(c2cccs2)N2CCOCC2)c1 (stereo not drawn)	4	-3	2	-4	-6	·	·	i
Cc1cc(C)cc(NC(=O)N2CCN(C/C=C/c3ccccc3)CC2)c1	1	·	10	0	0	0	-2	i
COc1cc(C)nc(Oc2ccc(=O)[nH]n2)n1	·	-9	-7	-3	-5	-6	7	i
FC(F)(F)c1cccc(-n2cc(-c3ccccc3)[nH]c2=S)c1	-8	-34	0	0	-6	3	12	i
O=C(OCC(=O)c1ccc(S(=O)(=O)N2CCCC2)cc1)C1=COCCO1	-61	-25	-11	-3	-3	-2	12	·
CCOC(=O)c1c(C)n(-c2ccc(C)cc2)c2ccc(OCC(O)CNCCCO)cc12 (stereo not drawn)	9	·	28	-1	-5	-11	-1	i
O=C(NCc1nc2ccccc2[nH]1)C1=C[C@H](c2ccc(C(F)(F)F)cc2)C[C@H](OCCCCO)O1	-23	-20	-3	1	-2	·	·	i
O=C(c1ccc2ccccc2c1)C1CCCN(S(=O)(=O)c2cccnc2)C1 (stereo not drawn)	15	·	-8	7	-12	-4	0	i
Cc1ccc(-n2c(=O)cc(NCc3cccnc3)[nH]c2=O)cc1	-15	-7	-8	-2	0	-2	-2	i
Cc1ccc(S(=O)(=O)N(CC(=O)NCc2cccnc2)c2ccc(F)cc2)cc1	39	-38	-5	4	6	-18	-3	i
COCCNC(=O)c1ccccc1NC(=O)CCSc1ccccc1	-2	-10	-10	0	2	-1	6	i

Copied from the list.
COCCNC(=O)c1ccccc1NC(=O)CCSc1ccccc1 in HIV Env fusion is entered as -2
Cn1ncc(Cl)c(Oc2ccc(C(C)(C)C)cc2)c1=O in eIF4H inh is entered as -4

(list continues)
SMILES	HIV Env fusion	Yeast UUG start	CSC inhib	MT1-MMP act inh	MT1-MMP act inh RFP	eIF4H inh	PABP polyA inh	Rce1 inh
OCCCc1nc2n(n1)C(c1cccs1)C=C(c1ccccc1)N2 (stereo not drawn)	·	·	-2	·	·	?	?	i
CC(NC(=O)c1ccccc1Cl)NC(=O)c1ccccc1Cl	1	-8	2	-1	1	5	0	i
OCCCc1nc2ccccc2n1CCc1ccccc1	·	-19	26	2	-3	-9	8	i
C/C(CC(=O)Nc1cccc(C(F)(F)F)c1)=N\NC(=O)c1ccncc1	20	-11	31	-3	-11	0	-5	i
CC(=O)Nc1ccc(NC(=O)CSc2nc(=O)n3cccc(C)c3n2)cc1	0	·	-4	5	4	·	·	i
COc1cccc(OC)c1OCCN1CCN(C(=O)c2ccco2)CC1	-33	-13	7	-5	-11	-12	6	i
CCOc1ccc(N=C(/C(C(=O)C(=O)N2CCOCC2)=C(\O)c2ccccc2)c2ccccc2)cc1	47	1	-7	-1	1	4	-1	i
CC1CN(Cc2ccccc2)c2nc3c(c(=O)n(CC(=O)O)c(=O)n3C)n2C1 (stereo not drawn)	9	14	-9	·	·	0	6	i
Cc1ccc(N2CC(=O)N(CC(=O)O)C2=O)cc1	-3	2	-24	7	5	0	-9	i
CCOc1ccc2ccccc2c1CNCCCN1CCOCC1	-17	-8	·	6	6	·	·	·
CC(=O)c1cccc(NC(=O)CCc2nnc3ccc(NCc4ccc5c(c4)OCO5)nn23)c1	3	·	13	-3	0	-14	-4	i
CCCCOC(=O)C(C)Oc1ccc(=O)n(-c2ccccc2)n1 (stereo not drawn)	1	-1	-1	3	-3	-12	-4	i
CCOC(=O)Cn1c(=N)n(CCOc2ccc(Br)cc2)c2ccccc21	15	5	-3	9	-4	4	-3	i
CCOC(=O)c1c(C)oc2c1c(C=NCC1CCCO1)c(O)c1ccccc12 (stereo not drawn)	4	32	·	-20	-4	27	16	i
CC(Oc1ccccc1F)C(=O)Nc1ccc2ccccc2c1 (stereo not drawn)	-57	-19	6	3	3	-4	-1	i
Cc1cc(C(=O)O)cc(S(=O)(=O)Nc2ccccc2C(=O)NC(C)c2ccccc2)c1C (stereo not drawn)	-19	-9	6	1	3	-7	5	i
COc1ccc(CCNCC(=O)N2C(C)CCCC2C)cc1OC (stereo not drawn)	21	·	-16	-3	3	8	-10	i
CC(=O)Nc1ccc(Nc2cc(C)c3ccccc3n2)cc1	-4	-25	-10	-1	-3	-1	-4	i
CCS(=O)(=O)N1Cc2ccccc2CC1C(=O)N(C)CC(=O)Nc1cccc(F)c1 (stereo not drawn)	-17	·	-12	1	8	·	·	i
COCCn1cnc2c1c(=O)n(CC(=O)NC(=O)NC(C)(C)C)c(=O)n2Cc1ccccc1	8	3	-12	-1	-1	3	-10	i
O=C(COC(=O)c1ccc(S(=O)(=O)NCc2ccco2)cc1)NCc1ccccc1	-11	-25	-5	0	7	·	·	·
CCCC(=O)NCCc1cc2c(C)ccc(C)c2[nH]c1=O	-1	-17	0	-2	-18	-1	-4	i
O=C(O)COCC(=O)Nc1ccc2c(c1)oc1ccccc12	-29	7	-3	-2	0	-2	7	i
O=C(CCN1CCN(C/C=C/c2ccccc2)CC1)Nc1ccccc1Cl	2	-8	5	0	-1	-18	3	i
C[C@H]1CN([C@@H](C)CO)C(=O)CCCn2cc(nn2)CO[C@@H]1CN(C)C(=O)C1CCCCC1	28	-6&22	·	-3	2	·	·	·
O=C(Nc1ccc(F)cc1)c1ccc(=O)[nH]n1	-27	-1	1	2	-1	-2	-6	i
c1ccc(-c2cnn3nnnc3n2)cc1	7	-9	-2	-8	-3	0	19	i
O=C1CCN(CC2CCCCC2)C=C1C(=O)c1ccccc1	-84	-2	·	4	2	·	·	·
COC(=O)C(C)Sc1ccc2nnc(-c3cccc(F)c3)n2n1 (stereo not drawn)	-6	-10	-11	3	5	0	-7	i
CC1(c2ccccc2)NC(=O)N(CC(=O)NCCC2=CCCCC2)C1=O (stereo not drawn)	-29	-6	-17	3	-2	0	-4	i
COC(=O)c1ccc(C(=O)NC(=S)Nc2nc3c(s2)CCCC3)cc1	-61	-14	-11	2	1	1	-2	i
O=[N+]([O-])c1cccnc1Oc1ccc(OCc2ccccc2)cc1	-61	-22	48	3	1	0	7	i
C1CC1Cc1noc(CN2CCN(C3C4CC5CC(C4)CC3C5)CC2)n1 (stereo not drawn)	8	·	43	3	6	-5	-3	i
O=C1CSC(c2ccccc2[N+](=O)[O-])N1c1cccc(F)c1 (stereo not drawn)	7	-15	-2	0	1	-5	-3	i
COc1ccccc1C(=O)NNC(=O)CCCN1C(=O)/C(=C/c2cccs2)SC1=S	-3	-3	13	-17	4	10	-5	i
Cc1ccc2cc(NC(=O)Cc3ccccc3)ccc2n1	-53	-9	6	1	1	-3	4	i
COc1cccc(N2[C@@H](CC(=O)O)c3ccccc3S2(=O)=O)c1	-3	-7	-4	2	4	·	·	i
CCOc1ccccc1N1CC(C(=O)Nc2ccc(S(=O)(=O)N3CCCCC3)cc2)CC1=O (stereo not drawn)	4	0	-3	1	-14	·	·	i
CCC(=O)c1c[nH]c(C(=O)NCCCN2CCOCC2)c1	·	-28	-13	3	10	4	-13	i
CCOC(=O)N1CCN(S(=O)(=O)c2ccc(C(=O)N(CCCN(C)C)c3nc4ccc(Cl)cc4s3)cc2)CC1	-1	-14	8	2	1	0	-8	i
Cc1cc(C(=O)NC2CCC(C)CC2)c(C)o1 (stereo not drawn)	-66	-14	-18	-1	-1	-5	-3	i

Assay outcomes: PubChem, several laboratories
